Assay outcomes as filed in PubChem BioAssay.
GIV-Gai inh = GIV-Galpha-i interaction inhibition; P08753; Galpha-i3/FITC-GIV peptide fluorescence polarization, 90 min; hits give low values; scaled: aluminum fluoride 0%, vehicle 100%; percent of control (FP), % (test concentration not listed); 210,000 tested, 0.42% active;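 active = replicate mean at 85% of control or lower, very high polarization wells dropped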;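 also: wells of about 15 µL received 100 nL stock; the first replicate is given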
Target sequence (P08753 whole entry, looked up): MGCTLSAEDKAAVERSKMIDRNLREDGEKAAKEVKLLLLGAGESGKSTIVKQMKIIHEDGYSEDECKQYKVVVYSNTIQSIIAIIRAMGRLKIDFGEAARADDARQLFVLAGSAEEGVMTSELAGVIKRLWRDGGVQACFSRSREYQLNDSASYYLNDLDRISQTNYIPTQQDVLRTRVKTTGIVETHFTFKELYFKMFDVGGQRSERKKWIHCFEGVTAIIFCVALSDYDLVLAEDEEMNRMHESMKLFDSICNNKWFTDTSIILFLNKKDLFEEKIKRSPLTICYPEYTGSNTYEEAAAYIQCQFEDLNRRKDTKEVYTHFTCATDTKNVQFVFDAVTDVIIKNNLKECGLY
Sa growth 42C = blocks Staphylococcus aureus growth; S. aureus RN4220 growth, OD600, 20 h, 42 °C; hits give low values; relative growth, % (no concentration beside the values); 170,000 tested, 0.53% active;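 active = growth at 42 °C up to 50% and 20 or more points under that at 30 °C, or under 10% at both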;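 also: 300 nL library stock went into each well; scaled to the means of positive and negative controls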
HCMV UL50-53 inh = disrupts HCMV UL50-UL53 complex binding | 190,000 tested, 0.15% active | AID 1918969 | HTRF UL50-UL53 interaction, normalized percent inhibition | inhibition, % (test concentration not listed);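 active = both replicates at 50% or more, plus weaker picks with an unusually low signal ratio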;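 also: stock transfer was 100 nL into about 20 µL; 0% = negative control wells and 100% = wells with untagged competitor protein; inactives centre near -12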
Sa growth 42C second temp = further read-out of Sa growth 42C, marked with its call; relative growth, %; measured here: growth at 30 °C;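 optical density after 20 h as mean of two plates; 100% = untreated growth and lower means inhibition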
The depositor's hits bear a star; nt = not tested or not shown; & = joins results of further samples.

Codes – A = GIV-Gai inh; B = Sa growth 42C; C = Sa growth 42C second temp; D = HCMV UL50-53 inh
(1) COC(=O)c1ccccc1N=Cc1c(C)[nH][nH]c1=O
  A: 101 | B: 78 | C: 68 | D: -59
(2) O=C(CSc1nnc(Cc2ccccc2)o1)N1CCOCC1
  A: 102 | B: 103 | C: 92 | D: nt
(3) CCN1C(=O)/C(=C/c2c(C)c(C#N)c(=O)n(C)c2N2CCN(c3ccc(F)cc3)CC2)SC1=S
  A: 210 | B: 84 | C: 89 | D: -38
(4) COc1ccc(Cn2nnnc2CN(Cc2ccc(C)cc2)Cc2cc3cc4c(cc3[nH]c2=O)OCO4)cc1
  A: 98 | B: 104 | C: 101 | D: -10
(5) O=C(O)Cc1ccc(Br)cc1
  A: nt | B: 107 | C: 101 | D: 3
(6) CSc1nnc2c(n1)OC(/C=C/c1ccccc1[N+](=O)[O-])Nc1ccccc1-2 (stereo not drawn)
  A: 105 | B: nt | C: nt | D: 3
(7) CCN(CC)C(=O)C1=C(C)Nc2nc3ccccc3n2C1c1ccccc1F (stereo not drawn)
  A: 100 | B: 91 | C: 103 | D: -1
(8) CCN1CCN(C(=O)c2ccc3c(c2)N(Cc2ccc(Cl)cc2)C(=O)c2ccccc2S3=O)CC1 (stereo not drawn)
  A: 101 | B: 108 | C: 80 | D: -36
(9) C=CCN(c1ccccc1C(=O)O)S(=O)(=O)c1ccc(NC(=O)OC)cc1
  A: 102 | B: 101 | C: 88 | D: -19
(10) N#Cc1c(C(F)(F)F)cc(-c2ccccc2)nc1SCC1COc2ccccc2O1 (stereo not drawn)
  A: 105 | B: 105 | C: 99 | D: nt
(11) CCSc1nn(CC(=O)Nc2cc(C)c(Cl)cc2OC)c(N)c1S(=O)(=O)c1ccc(OC)cc1
  A: 102 | B: nt | C: nt | D: -17
(12) Cc1nc2ccn(Cc3cccs3)c(=O)c2cc1C(=O)NCc1ccc(Br)cc1
  A: 97 | B: 92 | C: 75 | D: nt
(13) CC(C)n1c(C(O)c2ccccc2)nc2ccccc21 (stereo not drawn)
  A: 106 | B: 108 | C: 86 | D: nt
(14) O=C(Cn1c(=O)[nH]c2ccsc2c1=O)NC1CCCCCC1
  A: 112 | B: 90 | C: 88 | D: nt
(15) O=C(NCCC1=CCCCC1)Nc1cccc(F)c1
  A: 107 | B: 50 | C: 49 | D: -23
(16) CCN1CCC2(CC1)OC(=O)C(C)=C2C(=O)Nc1ccc2c(c1)OCO2
  A: 103 | B: nt | C: nt | D: -17
(17) Cc1nnc2ccc(NCCc3ccc(S(N)(=O)=O)cc3)nn12
  A: 99 | B: 97 | C: 89 | D: 4
(18) N#Cc1cccc(CSc2nc3ccc(C(F)(F)F)cc3[nH]2)c1
  A: 104 | B: 66 | C: 64 | D: 6
(19) CC(C)CC(C(=O)N(C)Cc1ccccc1)N1Cc2ccccc2C1=O (stereo not drawn)
  A: 106 | B: 99 | C: 80 | D: -26
(20) c1ccc(C(c2ccccc2)N2CCN(CC3(c4ccccc4)OCCO3)CC2)cc1
  A: nt | B: 113 | C: 93 | D: 1
(21) COC(=O)c1ccccc1NC(=O)CSc1nc(=O)cc(N)n1-c1ccccc1
  A: 110 | B: 100 | C: 78 | D: -20
(22) O=C(Nc1ccccc1)Nc1ccccc1C(=O)NC1CCSC1 (stereo not drawn)
  A: 104 | B: 91 | C: 94 | D: 2
(23) CCCN=Cc1c(CCC)[nH]n(-c2nc3ccccc3s2)c1=O
  A: 103 | B: 94 | C: 65 | D: -9
(24) CC(=O)N1CCc2cc(S(=O)(=O)C(C)CC(=O)Nc3ccc(Br)c(C)c3)ccc21 (stereo not drawn)
  A: 106 | B: 130 | C: 82 | D: nt
(25) Cn1ccc2cc(S(=O)(=O)N3CCN(C(=O)Nc4ccc5c(c4)OCCO5)CC3)ccc21
  A: 105 | B: nt | C: nt | D: -11
(26) N#Cc1sc2nc(N3CCCCC3)c3c(c2c1N)CCCC3
  A: nt | B: 81 | C: 78 | D: -11
(27) COC(=O)c1ccc2c(c1)nc(SCc1ccccc1Cl)n1c3ccccc3nc21
  A: 100 | B: 83 | C: 81 | D: nt
(28) CCCCCn1c(=O)[nH]c2cc(C(=O)N3CCN(c4ccccc4)CC3)ccc2c1=O
  A: 105&107 | B: 99 | C: 98 | D: -9&-3
(29) CSc1nnc(C)n1-c1ccc(OCc2ccccc2)cc1
  A: 103 | B: 115 | C: 79 | D: -3
(30) O=C(OCC(=O)c1ccccc1)C1=NN(c2ccccc2)C(=O)CC1
  A: nt | B: 105 | C: 89 | D: -26

Four compounds already listed, ordered by SMILES length, rising.
Codes – A = GIV-Gai inh; B = Sa growth 42C; C = Sa growth 42C second temp; D = HCMV UL50-53 inh
(23) CCCN=Cc1c(CCC)[nH]n(-c2nc3ccccc3s2)c1=O
  A: 103 | B: 94 | C: 65 | D: -9
(18) N#Cc1cccc(CSc2nc3ccc(C(F)(F)F)cc3[nH]2)c1
  A: 104 | B: 66 | C: 64 | D: 6
(30) O=C(OCC(=O)c1ccccc1)C1=NN(c2ccccc2)C(=O)CC1
  A: nt | B: 105 | C: 89 | D: -26
(27) COC(=O)c1ccc2c(c1)nc(SCc1ccccc1Cl)n1c3ccccc3nc21
  A: 100 | B: 83 | C: 81 | D: nt

Rewritten with two lines to a compound: four of the compounds above
Results follow in this order: GIV-Gai inh | Sa growth 42C | Sa growth 42C second temp | HCMV UL50-53 inh
(18) N#Cc1cccc(CSc2nc3ccc(C(F)(F)F)cc3[nH]2)c1
 : 104 | 66 | 64 | 6
(19) CC(C)CC(C(=O)N(C)Cc1ccccc1)N1Cc2ccccc2C1=O (stereo not drawn)
 : 106 | 99 | 80 | -26
(20) c1ccc(C(c2ccccc2)N2CCN(CC3(c4ccccc4)OCCO3)CC2)cc1
 : nt | 113 | 93 | 1
(21) COC(=O)c1ccccc1NC(=O)CSc1nc(=O)cc(N)n1-c1ccccc1
 : 110 | 100 | 78 | -20

Later entries:
Codes – A = GIV-Gai inh; B = Sa growth 42C; C = Sa growth 42C second temp; D = HCMV UL50-53 inh
(31) CNc1nc(N)c(C(=O)C(C)(C)C)s1
  A: 108 | B: 99 | C: 86 | D: -12
(32) O=C(NC1CC1)c1cc(-c2cccnc2)nc2ccccc12
  A: 105 | B: 94 | C: 96 | D: nt
(33) Cc1ccc(-c2noc(CN3C(C)CCCC3C)n2)cc1 (stereo not drawn)
  A: 102 | B: 89 | C: 78 | D: -18
(34) COc1cc(Cl)c(NC(=O)CC(C)S(=O)(=O)c2cc3c(cc2C)NC(=O)CO3)c(OC)c1 (stereo not drawn)
  A: 103 | B: 100 | C: 84 | D: nt
(35) CCC(C)(C)C1CCC(=NNC(=O)Cc2cccn2C)CC1 (stereo not drawn)
  A: nt | B: 90 | C: 99 | D: -4
(36) COc1ccccc1C(=O)Nc1sc2c(c1C(N)=O)CCC2
  A: nt | B: 111 | C: 88 | D: -20
(37) CCCNS(=O)(=O)c1c(C(=O)OCC)c(C)n(C)c1C
  A: 115 | B: 100 | C: 97 | D: -13
(38) COc1cc(Br)c(C2CC(=O)Nc3cc4c(cc32)OCCO4)cc1OC (stereo not drawn)
  A: 104 | B: 114 | C: 90 | D: -11
(39) Cc1cccc(NC(=O)c2ccc(-n3nc(C)cc3C)cc2)c1
  A: nt | B: 110 | C: 87 | D: -26
(40) COc1ccc(OCC(O)CNC(=O)c2c(-c3ccccc3)noc2C)cc1 (stereo not drawn)
  A: 98 | B: 101 | C: 81 | D: -19
(41) COC(=O)c1ccccc1NS(=O)(=O)c1cc2c3c(c1)CC(=O)N3CCC2
  A: 99 | B: 121 | C: 89 | D: nt
(42) Cc1nc(COC(=O)c2n[nH]c3ccccc23)cs1
  A: nt | B: 109 | C: 91 | D: -10
(43) O=C1c2ccccc2C(=O)c2sccc21
  A: 106 | B: 1.6* | C: 2.1* | D: -208
(44) CCOC(=O)c1c(C)n(CC(COC(C)=O)OC(C)=O)c2ccc(OC(C)=O)cc12 (stereo not drawn)
  A: 110 | B: nt | C: nt | D: 5
(45) O=C(CSc1nc2ccccc2[nH]1)Nc1ccccc1C(F)(F)F
  A: 103 | B: nt | C: nt | D: 8
(46) O=c1[nH]c2ccccc2cc1CNc1ccc(Cl)cc1
  A: nt | B: 84 | C: 79 | D: -9
(47) O=C(CCC(=O)N1CCc2cc(S(=O)(=O)NCCC3=CCCCC3)ccc21)N1CCCC1
  A: 99 | B: nt | C: nt | D: -34
(48) COc1ccc(C(=O)Nc2cc3c(cc2C(=O)c2ccccc2Cl)OCCO3)cc1
  A: 107 | B: 104 | C: 92 | D: 6
(49) CCCC(=O)Nc1[nH]c(=S)c(C#N)c(-c2ccc(OC(=O)CCC)cc2)c1C#N
  A: 103 | B: nt | C: nt | D: -27
(50) COc1ccc(-c2nc(Cn3c(SCc4ccccc4C)nc4ccncc43)c(C)o2)cc1OC
  A: 102 | B: 109 | C: 85 | D: -2
(51) COc1cc(OC)c(C2C=C(C(=O)O)Nc3ncnn32)cc1OC (stereo not drawn)
  A: 104 | B: 106 | C: 92 | D: -7
(52) Cc1oc2c(C)c3oc(=O)c4c(c3cc2c1C)CCCC4
  A: 107 | B: 89 | C: 91 | D: -14
(53) Cc1c(C(=O)N2CCN(C(=O)C3COc4ccccc4O3)CC2)sc2nc[nH]c(=O)c12 (stereo not drawn)
  A: nt | B: 69 | C: 99 | D: -30
(54) CCOC(=O)c1ccccc1NC(=O)N1CCCn2nc(C)cc21
  A: 101 | B: 75 | C: 79 | D: nt
(55) COc1ccc(Br)c(C(=O)Nn2c(-c3cc(OC)c(OC)c(OC)c3)nc3ccccc3c2=O)c1
  A: 105 | B: nt | C: nt | D: -13
(56) Cc1cccc(C(=O)N2CC(=O)Nc3ccc(Br)cc3C2c2ccccc2)c1 (stereo not drawn)
  A: 94 | B: nt | C: nt | D: -6
(57) Cc1ccccc1OCc1nnc2c3cnn(C)c3ncn12
  A: 104 | B: 98 | C: 87 | D: -18
(58) COc1ccccc1N1CCN(C(=S)Nc2ccc(S(=O)(=O)N3CCOCC3)cc2)CC1
  A: 106 | B: 102 | C: 106 | D: -3
(59) Cc1ccc(CNS(=O)(=O)c2ccc3oc(C(=O)O)c(C)c3c2)cc1
  A: 98 | B: 86 | C: 82 | D: nt
(60) CC(OC(=O)c1ccc2c(=O)n3c(nc2c1)CCCCC3)C(=O)N1CCCc2ccccc21 (stereo not drawn)
  A: nt | B: 104 | C: 87 | D: -33
(61) COc1ccccc1NC(=O)Cn1c(=O)n(-c2cccc(Cl)c2)c(=O)c2sc3ccccc3c21
  A: 103 | B: 106 | C: 86 | D: -36
(62) COc1ccccc1OCCCn1c(C(C)N2CCCCC2)nc2ccccc21 (stereo not drawn)
  A: 107 | B: nt | C: nt | D: -24
(63) O=C(Cn1ncc2ccccc21)N1CCN(c2ccccc2)CC1
  A: 97 | B: 95 | C: 94 | D: nt
(64) COc1ccc(C2c3sc(=O)[nH]c3SC3C(=O)N(c4ccc(Br)cc4)C(=O)C32)cc1 (stereo not drawn)
  A: 102 | B: 97 | C: 72 | D: -23
(65) O=C1CN(C(=O)c2ccco2)c2ccccc2N1
  A: 104 | B: 94 | C: 81 | D: nt
(66) COc1ccc(NC(=O)CCc2c(C)nc3c(-c4ccc(F)cc4)c(C)nn3c2C)c(OC)c1
  A: 92 | B: 108 | C: 93 | D: -7
(67) Cc1ccc(CNC(=O)CCCCCn2c(=O)c3sccc3n(CC(=O)Nc3c(C)cc(C)cc3C)c2=O)cc1
  A: 102 | B: 92 | C: 85 | D: 5
(68) CCCCC(=O)Nc1sc2c(c1C#N)CCCC2
  A: nt | B: 96 | C: 80 | D: -11
(69) O=C(COc1ccccc1Cl)Nc1ccc(Cl)c(-c2nc3ccccc3o2)c1
  A: 107 | B: 131 | C: 85 | D: -24
(70) O=C(NCc1ccc(Cl)cc1)C(Cc1ccccc1)NS(=O)(=O)c1cccc2cccnc12 (stereo not drawn)
  A: 102 | B: nt | C: nt | D: -24
(71) CCN(CC(=O)Nc1ccc2c(c1)OCCO2)C(=O)c1ccc(CS(C)(=O)=O)cc1
  A: nt | B: 103 | C: 84 | D: -37
(72) COc1ccc(NC(=O)C2CC(=O)NC3=C2C(=O)CCC3)cc1 (stereo not drawn)
  A: 99 | B: 84 | C: 86 | D: -25
(73) CC(NC(=O)Nc1ccc(F)cc1F)C1CCCO1 (stereo not drawn)
  A: 106 | B: 103 | C: 95 | D: -6
(74) O=C(O)Cn1c(SCc2cccc3ccccc23)nc2ccccc21
  A: 111 | B: nt | C: nt | D: -11
(75) Cc1nc2cc(-c3cccc(F)c3)nn2c(C)c1CCC(=O)NCCc1ccccc1
  A: 109 | B: 89 | C: 93 | D: 9
(76) CC(Sc1ccc(S(=O)(=O)N2CCOCC2)cn1)C(N)=O (stereo not drawn)
  A: nt | B: 76 | C: 90 | D: -8
(77) CCOC(=O)C1=C(C)N(c2nonc2NC(C)=O)C(N)=C(C#N)C1c1ccc(Br)cc1 (stereo not drawn)
  A: nt | B: 95 | C: 90 | D: -8
(78) COc1ccccc1CNC(=O)CCC1N=C2c3ccccc3N=C(SCC(=O)NCCc3ccccc3)N2C1=O (stereo not drawn)
  A: 102 | B: 113 | C: 102 | D: nt
(79) COC(=O)c1ccc([C@H]2Nc3ccc(S(=O)(=O)Nc4ccc(F)cc4)cc3[C@H]3C=CC[C@H]32)cc1
  A: 115 | B: 103 | C: 80 | D: -46

Outcome played no part in choosing rows. About 0.85% of those tested had a hit in this group.
